Screening data as filed in PubChem BioAssay.
MgrA DNA FP: S. aureus MgrA activity modulators, primary screen, biochemical, S. aureus Newman, fluorescence polarization. MgrA-DNA binding. inhibition, %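 (about 10 µg/mL by stock and volumes)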. actives 0.13% (n = 84,000). AID 602314, 2012;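 active = above 50% in either of two replicates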;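 also: 0% = protein plus DNA without compound and 100% = DNA alone without protein; higher means less MgrA bound to DNA so lower polarization; one replicate is shown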
S aureus helic: inhibitors of S. aureus replicative helicase, primary screen, biochemical, fluorescence unwinding readout | purified S. aureus helicase, fluorescence unwinding assay; about half of the hits fall short of the stated cut | inhibition, %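 (tested at about 80 µM)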 | actives 0.05% (n = 120,000);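 active = both duplicates at 50% or more, or one of them with a favoured structure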;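 also: 0% = mean of negative control wells and 100% = mean of positive control wells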
Numbers without * were called inactive; nt = not tested or not shown; & = joins results of further samples.

No.	molecule	MgrA DNA FP	S aureus helic
1	Cc1cc2ncc(-c3cccs3)nc2cc1C	-1.6	13
2	COC(=O)C1=C(O)/C(=C/c2ccc(C(C)(C)C)cc2)N=C1C	0.4	18
3	CCOC(=O)c1c(C)oc(NC(=O)COC(=O)COc2ccc3c(c2)CCC3)c1C#N	nt	-12
4	O=C(NCCCn1ccnc1)c1cc(-c2ccccc2)on1	0.6	7
5	CC(C)CC(=O)N=C1SC2CS(=O)(=O)CC2N1c1ccccc1 (configuration not stated)	nt	-16
6	COc1cccc(C(=O)N(C)C)c1	4.0	4
7	CCC(=O)Nc1sc2c(c1C(N)=O)CCCCC2	nt	3
8	Cc1cccc(OCc2nc(-c3ccc(C(F)(F)F)cc3)no2)c1C	nt	-2

Sorted by molar mass (highest first): some entries from above
No.	molecule	MgrA DNA FP	S aureus helic
3	CCOC(=O)c1c(C)oc(NC(=O)COC(=O)COc2ccc3c(c2)CCC3)c1C#N	nt	-12
5	CC(C)CC(=O)N=C1SC2CS(=O)(=O)CC2N1c1ccccc1 (configuration not stated)	nt	-16
2	COC(=O)C1=C(O)/C(=C/c2ccc(C(C)(C)C)cc2)N=C1C	0.4	18
4	O=C(NCCCn1ccnc1)c1cc(-c2ccccc2)on1	0.6	7
7	CCC(=O)Nc1sc2c(c1C(N)=O)CCCCC2	nt	3
1	Cc1cc2ncc(-c3cccs3)nc2cc1C	-1.6	13
6	COc1cccc(C(=O)N(C)C)c1	4.0	4

Remaining list, next part:
No.	molecule	MgrA DNA FP	S aureus helic
9	CCN1CCC(N(Cc2ccc(F)cc2)C(=O)NC23CC4CC(CC(C4)C2)C3)CC1	1.3	7
10	Cn1c2ccccc2c2nnc(SCCN3CCOCC3)nc21	nt	7
11	Cc1cc(C(F)(F)F)c(C#N)c(=S)[nH]1	1.1	-18&-107
12	O=c1oc2ccc(Br)cc2cc1-c1nc2ccccc2s1	3.0	nt
13	S=C(NCCn1ccnc1)Nc1ccc(Cl)cc1	1.5	nt
14	Cc1ccc2ncnc(Oc3ncccc3NC(=O)C(C)(C)C)c2c1	0.9	nt
15	O=C1COc2ccc(C3=Nn4c(nnc4-c4ccncc4)SC3)cc2N1	nt	10
16	CCOc1ccc2nc(NCCNC(=O)C(C)(C)C)c(C)cc2c1	-1.2	10
17	NS(=O)(=O)c1ccc(NC(=O)c2ccc(S(=O)(=O)N3CCc4ccccc43)cc2)cc1	nt	5
18	O=C(Cn1c(=O)n(-c2ccccc2)c(=O)c2oc3ccccc3c21)N1CCCC1	nt	3
19	O=[N+]([O-])c1cc(Cl)c(-n2cccc2)cc1Sc1ccc(Cl)cc1	-1.4	nt
20	Cc1nn(-c2ccccc2)nc1C(=O)OCc1ccc(C#N)cc1	nt	-6
21	CC1CCN(c2ccc(C#N)cc2)CC1	-3.0	8
22	Cc1nc(SCc2nc3ccccc3o2)n(C2CCCC2)c1C	nt	-30
23	CCOc1ncc(-c2nnnn2-c2ccc(C)cc2)c(-c2cccc(Cl)c2)n1	-0.5	nt
24	Cc1oc(-c2cccc(C(F)(F)F)c2)cc1C(=O)O	nt	-24
25	COc1ccc(NC(=S)NC2CCCCC2)cc1	2.6	3
26	OCc1cc2ccccc2o1	nt	6
27	CN1C(=O)c2c(sc3c2CCCC3)NC1c1ccc(O)cc1 (configuration not stated)	nt	4
28	CC(C)c1ccc(NC(=O)C(NC(=O)/C=C/c2ccc3c(c2)OCO3)c2ccccc2)cc1 (configuration not stated)	1.4	11
29	Clc1cc2c(c(Cn3cnc4ccccc43)c1)OCOC2	nt	-21
30	COc1ccc(-c2nn(C)c3sc(C(=O)NC(C)C)cc23)cc1OC	nt	18
31	Cc1cc(C)nc(NC(C(=O)O)C(C)C)n1 (configuration not stated)	-2.7	-3
32	O=c1[nH]nc(SCCO)c(=O)[nH]1	nt	10
33	CCCCCCc1cc2cc(-c3nnc(-c4ccccc4)o3)c(=O)oc2cc1O	-2.0	nt
34	CCOC(=O)c1cc2c(n(-c3ccc(OC)cc3)c1=O)CCCC2=O	-2.0	7
35	COc1c[nH]n(C2CCCCC2)c(=O)c1=O	0.8	21
36	COc1ccc(OCC(=O)N2N=C3/C(=C/c4ccco4)CCCC3C2c2ccco2)cc1 (configuration not stated)	nt	-10
37	O=C1CC(C(=O)Nc2ccc(Cl)cc2)N=C(N2CCc3ccccc32)N1 (configuration not stated)	-0.7	-5
38	COc1ccc(C2C(C#N)=C(SC)NC(C)=C2C(=O)Nc2ccccc2C)cc1OC (configuration not stated)	nt	-20
39	CC(=O)NC(c1ccccc1)c1nc2ccccc2[nH]1 (configuration not stated)	nt	8
40	CC(C)(C)C(=O)Cn1nnc(N2CCCC2)n1	-1.9	nt
41	CSc1nsc(SC)c1C(=O)NC(=O)Nc1ccc(C(C)C)cc1	1.2	nt
42	Cc1c(CSC(=N)N)c(C)c(CSC(=N)N)c(C)c1CSC(=N)N	nt	28
43	COc1cc(-c2c(C#N)c(N)nc3sc(C(=O)c4ccc(Cl)cc4)c(N)c23)cc(OC)c1OC	0.1	nt
44	Nc1nccc(-c2ccccc2OCc2ccc(Cl)cc2)n1	-1.0	nt
45	COC(=O)c1ccc(CSc2ncnc3ccccc23)o1	nt	-8
46	CSc1nnc2c(n1)OC1(Nc3ccccc3-2)C(=O)Nc2ccc([N+](=O)[O-])cc21 (configuration not stated)	0.9	nt
47	Cc1nc(N)sc1C(N)=O	-2.3	14
48	O=C(Cc1n[nH]c(=O)c2ccccc12)OC1CCOC1=O (configuration not stated)	nt	20
49	Cc1cccc(NC(=O)CC(C)(C)C)c1	-0.8	0
50	COc1ccc2c(c1)OC1(C)CC2C(S(=O)(=O)c2ccccc2)C(=O)N1 (configuration not stated)	-0.6	4
51	COc1ccc(Nc2c(-c3cc(Br)ccc3O)nc3cnccn23)cc1	nt	-27
52	Cc1ccc(NC(=O)Nc2ccc(C(C)(C)C)cc2)cc1	1.2	4
53	N#Cc1cccc(NC(=O)CNc2ccccc2Cl)c1	nt	-6
54	CC(NC(=S)N1CCc2ccccc2C1)C12CC3CC(CC(C3)C1)C2 (configuration not stated)	2.8	11
55	S=C1NCN(CC2CCCO2)CN1 (configuration not stated)	nt	-12
56	Cc1cccc(C)c1NC(=O)CC1C(=O)N(Cc2ccccc2)C(C)c2nc3ccccc3n21 (configuration not stated)	-1.5	5
57	CCN1C(=O)c2cccc3c(S(=O)(=O)NC(Cc4c[nH]c5ccccc45)C(=O)O)ccc1c23 (configuration not stated)	-4.0	11
58	COc1ccc(-c2nc(SCC(=O)NCC3CCCO3)c(-c3ccc(F)cc3)[nH]2)cc1OC (configuration not stated)	nt	25
59	O=C(O)C1CC(=O)N(c2ccc(OC(F)(F)F)cc2)C1 (configuration not stated)	-6.3	nt
60	C=CCn1c(C)cc(C(=O)CSc2nc3ccccc3c(=O)n2CC=C)c1C	nt	-3
61	COc1ccc(CSc2cccc3cccnc23)cc1	8.6	12
62	Cc1cc(NC2C3CC4CC(C3)CC2C4)n2ncnc2n1 (configuration not stated)	17	1
63	COC(=O)/C(C#N)=C/c1ccccc1I	nt	8
64	O=C(NCCO)c1nnc(-c2ccc3c(c2)OCO3)o1	-0.6	4

(continued)
No.	molecule	MgrA DNA FP	S aureus helic
65	CCOC(Cn1c(CO)nc2ccccc21)OCC	nt	6
66	Cc1ccc(-c2cc(C(=O)Nc3c(C)n(C)n(-c4ccccc4)c3=O)c3ccccc3n2)o1	-0.1	nt
67	Cc1nn(Cc2ccc(Cl)cc2)c(C)c1NC(=O)COCc1cc(-c2cccs2)on1	nt	-15
68	NC(=O)c1cc(N)ccc1N1CCCC1	9.4	12
69	Cc1cc2c(c(SCc3ccc(Cl)cc3)n1)C(=O)OC2	-1.2	24
70	Cc1ccc2nc(Cl)c(CO)cc2c1	0.2	2
71	NNC(=O)Nc1ccc(C(F)(F)F)cc1Cl	nt	-11
72	CC1SCCN1S(=O)(=O)c1ccc2ccccc2c1 (configuration not stated)	nt	-7
73	CC(=O)Oc1ccc2c(=O)c(-c3cc4ccccc4o3)coc2c1	1.5	11
74	CCC(C)c1ccc(S(=O)(=O)N2CCN(C(C)C(=O)NC3CC3)CC2)cc1 (configuration not stated)	nt	1
75	COCCn1c(C)cc(/C=C(\C#N)C(=O)OCc2cc(=O)n3c(n2)sc2ccccc23)c1C	nt	12
76	Cc1cn(-c2ccccc2)nc1C(=O)Nc1nn(C)c2ccccc12	-0.8	nt
77	Cc1ccc(-c2nc(CSCC(=O)N3CCC(C(N)=O)CC3)c(C)o2)cc1	nt	-8
78	Cc1cc(NC(=O)Cc2ccccc2)ccc1-c1cc2ccccc2oc1=O	-1.9	13
79	COc1ccc(CNC(=O)C2CCN(c3nc4cccnc4s3)CC2)c(OC)c1	nt	-2
80	O=C(CS(=O)(=O)c1cn(Cc2ccc(F)cc2)c2ccccc12)N1CCCCC1	nt	12
81	N#Cc1ccc(CSc2ncnc3ccccc23)cc1	0.5	-7
82	O=C(NCC1CCN(S(=O)(=O)c2ccc(Cl)cc2)CC1)C1CCCO1 (configuration not stated)	-0.7	17
83	COc1cccc(-c2nnc(-c3ccccc3NS(=O)(=O)c3ccc(Cl)cc3)o2)c1	-0.6	nt
84	COc1ccc(C(=O)c2ccccc2)c(OCC(=O)NC2CC2)c1	nt	11
85	CC(C)Oc1ccccc1C1Nc2ccccc2C(=O)N1c1ccc2c(c1)OCCO2 (configuration not stated)	nt	-2
86	C[n+]1cccc(C(=O)NO)c1	-0.8	3
87	CN1c2ccccc2-c2nc(SCC(=O)Nc3ccccc3F)ncc2S1(=O)=O	nt	8
88	O=C(Cn1c(C(=O)N2CCN(C3CCCCC3)CC2)cc2sccc21)c1ccccc1	-1.4	0
89	CC(=O)Nc1ccccc1-c1nc2ccccc2o1	nt	-18
90	O=C(CC(NCCc1ccccc1)C(=O)O)Nc1ccc(O)cc1 (configuration not stated)	2.2	9
91	COc1cccc(NC(=O)CN(c2cccc(OC)c2)S(C)(=O)=O)c1	1.0	-5
92	COc1ccc(Cl)cc1S(=O)(=O)NCc1ccco1	nt	7
93	CN(CCC#N)C(=O)c1ccc2c(c1)N(Cc1ccc(F)cc1)C(=O)c1ccccc1S2=O (configuration not stated)	nt	8
94	COc1cccc(-n2c(CC(=O)NN)csc2=NCc2ccco2)c1	nt	3
95	Cc1nc(NC2CC2)c2c3c(sc2n1)CCC3	nt	25
96	CCn1c2ccccc2c2cc(NC(=O)c3ccc(OC)c(OC)c3)ccc21	4.2	18
97	C(=N\c1nc2ccccc2s1)/c1cccnc1	5.1	8
98	CCOC(=O)Nc1ccc2c(c1)ncn2C1CCCCC1	nt	10
99	C1=C(c2ccc3c(c2)c2c4n3CCNC4CCC2)CCC1 (configuration not stated)	nt	10
100	CCCC(=O)Nc1c2c(nc3ccccc13)N(Cc1ccccc1)CC2	-5.9	1
101	COc1cc(C=Nc2ccc3c(c2)OCO3)ccc1OC(=O)c1ccco1	nt	-2
102	O=C(NCCc1ccccc1)c1nc2ncccn2n1	-1.8	3
103	Cc1cccc(OCc2nnc(SCc3nc4ccccc4c(=O)n3CC#N)o2)c1	nt	-8
104	O=C(Nc1nc2ccccc2n1CCN1CCCCC1)c1ccccc1	nt	5
105	CC1CCc2c(sc3ncnc(NS(=O)(=O)c4cccs4)c23)C1 (configuration not stated)	nt	-15
106	COc1ccccc1NC(=O)NC(CC(=O)O)c1ccc(C)cc1 (configuration not stated)	nt	37
107	O=C(CSc1nnc(-c2ccccc2)o1)c1cccc(C(F)(F)F)c1	nt	11
108	Cc1ccc(-c2nn[nH]n2)cc1Cl	1.3	nt
109	Fc1ccc(N(Cc2nc3ccccc3[nH]2)Cc2nc3ccccc3[nH]2)cc1	nt	-11
110	COC(=O)/C(C#N)=C1/C=Cc2ccccc2N1	nt	8
111	O=C1Nc2ccccc2N(O)N1c1nccs1	1.4	-9
112	CC(Oc1ccccc1)C(=O)N(CC#N)CC#N (configuration not stated)	1.5	-15
113	COc1ccc(/C=C2/C(=O)NC(=O)N(c3ccc(Br)cc3)C2=O)c(OC)c1	3.0	nt
114	CC(=O)N1CCc2c(sc3nc(SCc4ccc(C)cc4)n(Cc4ccco4)c(=O)c23)C1	nt	-24
115	O=C(C1CC1)N1CCN(c2ccc(F)cc2)CC1	2.1	2
116	Cc1nn(C)c2ncc(C(N)=O)c(Oc3ccc(Cl)cc3)c12	-3.7	nt
117	CN(Cc1cccc(F)c1)C(=O)COC(=O)c1ccc2c(c1)NC(=O)CS2	nt	13
118	O=C(NCc1cccnc1)C1CCCN(S(=O)(=O)c2cccc3nsnc23)C1 (configuration not stated)	nt	8
119	CC1(C)OC(C)(C)/C(=C/c2c(Cl)cccc2Cl)C1=O	-1.7	14
120	CCOC(=O)c1c(NC(=O)c2cccc(Cl)c2)sc(C(=O)Nc2cccc(C(F)(F)F)c2)c1C	-1.6	nt
121	O=C(Nc1ccc(Cl)cc1)c1cccnc1C(=O)O	8.2	-6
122	C[C@@H]1CC[C@@]2(OC1)OC1CC3C4CC=C5C[C@@H](O)CC[C@]5(C)C4CC[C@]3(C)C1[C@@H]2C (some centres not stated)	0.9	nt
123	CCOC(=O)Cn1c2c(sc1=O)C1c3ccccc3OCC1CS2 (configuration not stated)	nt	-12

Only part of the results is shown; count on the stated rates, not on these rows.
